From PubChem BioAssay
StopGo FLuc: Primary qHTS Assay for Foot and Mouth Disease Virus Antivirals against NCGC Sytravon and CBC Compound Libraries: Firefly Luciferase Signal; Potency, µM (top dose mostly 57.5 µM), inactives show top-dose signal change, negative = less light; hit rate 0.23% among 120,000; HEK cells with a luciferase reporter of 2A StopGo recoding; active = well fitted falling curve with a large enough effect; inconclusive = small, poorly fitted or top-dose-only effect; inactive = no such curve, though single readings can be large or run the other way; note: nearly all actives have a fitted effect of over 60% in size; overnight with compound
StopGo RLuc: Primary qHTS Assay for Foot and Mouth Disease Virus Antivirals against NCGC Sytravon and CBC Compound Libraries: Renilla Luciferase Signal | HEK cells with a luciferase reporter of 2A StopGo recoding | Potency, µM (titrated, usually from 57.5 µM), inactives show at the highest dose signal change, negative = less light | hit rate 0.32% among 120,000; active means well fitted falling curve with a large enough effect; inconclusive means small, poorly fitted or top-dose-only effect; inactive means no such curve, though single readings can be large or run the other way; note: nearly all actives have a fitted effect of over 55% in size; overnight with compound
* marks the source's active call; other numbers are inactive results; ? = inconclusive; [ ] = dose if it differs, or a comment. % is set by controls: 0 for no effect and ±100 for the full control effect; potency is the fitted concentration of half-maximal effect.

canonical_smiles,StopGo RLuc,StopGo FLuc
Cc1nc2c(C(=O)NCCc3ccccc3)c[nH]n2c(=O)c1Cc1ccccc1F,4%,9%
O=C(Nc1ccccc1)C1CC(=O)N(Cc2ccccc2)c2nc3ccccc3n21 (stereo not given),21%,6%
O=C(NCc1ccnc(N2CCCC2)c1)c1ccc(O)c(Cl)c1,-8%,14%
COC(=O)c1c[nH]c(=O)cn1,-2%,-3%
O=C(Nc1ccc(F)c(F)c1)c1cnn2c(C(F)F)cc(C3CC3)nc12,-9%,2%
CCCCC(=O)NCC(O)COCc1ccc(OC)cc1 (stereo not given),-3%,-12%
O=C(Cn1cnc2cc(F)ccc2c1=O)N1CCCC1c1ccc2c(c1)OCCO2 (stereo not given),-2%,17%
COc1ccc(C(C)=O)cc1CC(=O)Oc1cc(Cl)ccc1Cl,-7%,-18%
O=c1c2c(ncn2Cc2ccco2)n(Cc2ccccc2)c(=O)n1CC(O)c1ccccc1 (stereo not given),-5%,-8%
CC#CCCC(=O)Nc1ccc(C)cc1,0%,20%
Cc1ccc(S(=O)(=O)Nc2cc3c(cc2Cl)n(C)c(=O)c(=O)n3C)cc1,26%,-8%
Nc1ccc(C(c2ccc(N)cc2)c2ccc(O)cc2)cc1,-7%,5%
COc1cccc(-n2c(/C=C\c3ccc(Cl)cc3)nc3ccccc3c2=O)c1,-3%,23%
COc1ccc(/C=C/C(=O)OCc2cc(=O)oc3c(C)c(C)ccc23)cc1OC,-15%,-9%
CCOc1ccc(C(=O)CC2(O)C(=O)Nc3ccc(CC)cc32)cc1 (stereo not given),26%,22%
COc1ccc(C(C)=O)cc1CN1CCN(C/C=C/c2ccccc2)CC1,-14%,-13%
CCC(Sc1nc2cc(OC)c(OC)cc2c(=O)n1Cc1ccc(Cl)cc1)C(=O)NCCOC (stereo not given),-11%,-16%
O=C(Nc1ccc(C(O)(C(F)(F)F)C(F)(F)F)cc1)c1ccc(Br)cc1,?,?
CCc1nnc2ccc(NCc3ccc(F)cc3)nn12,53%[activator],0%
COC(=O)c1ccc2c(=O)n(CCCCCC(=O)NCc3ccc(Cl)cc3)c(=O)[nH]c2c1,6%,76%[activator]
Clc1cc(Cl)cc(-c2ccc(CNC3CN4CCC3CC4)o2)c1 (stereo not given),-1%,17%
CC(=O)c1c(C)[nH]c(C(=O)C(C)N(C)Cc2cccc(F)c2)c1C (stereo not given),4µM*,?
Clc1ccc(-n2nnnc2C2(Nc3ccccc3)CCCC2)cc1,148%[activator],9%
CCOc1cc(-c2nn3c(-c4ccccc4C)nnc3s2)cc(OCC)c1OCC,-35%,-21%
CC(C)C(NC/C=C/c1ccccc1)C(=O)O (stereo not given),-11%,-12%
CSC1=N/C(=C\c2cccc(Oc3ccccc3)c2)C(=O)S1,-9%,0%
CC(=O)c1c(C)[nH]c(C(=O)COc2ccc(F)c(Cl)c2)c1C,-1%,-18%
COc1cccc(NC(=O)CN(C)C(=O)Cn2[nH]c(=O)c3ccccc3c2=O)c1,12%,27%
Cc1ccc(N2CC(C(=O)Nc3ccc(Cl)cc3Cl)CC2=O)cc1 (stereo not given),39%[activator],0%
CC(C(=O)Nc1cccc2ncccc12)N1CCCCC1 (stereo not given),-11%,-11%
O=S(=O)(Cc1ccccc1F)CC(O)c1ccccc1 (stereo not given),-1%,-1%
Cc1ccc(C(=O)NCCc2c[nH]c3ccc(C)cc23)cc1,10%,94%[activator]
CCOC(=O)c1ccc(NC(=O)C(Cc2ccccc2)NS(=O)(=O)c2ccc(Br)s2)cc1 (stereo not given),-10%,-5%
Cc1ccccc1-c1noc(COc2ccc3ccc(=O)oc3c2)n1,1%,58%[activator]
Clc1ccc(-c2ccc(CNCCSc3nnnn3-c3ccccc3)o2)cc1,29%,25%
CCCCOCCCNC(=O)CCC(=O)O,-2%,-6%
CCN(C(=O)c1ccc(Cl)s1)C1CC1,-4%,4%
CCC(CC)C(=O)Nc1ccc2oc(-c3ccc(OC)cc3)nc2c1,-1%,57%[activator]
Cc1ccc(-n2nnc(C(=O)NC3CCCCC3)c2N)cc1,3%,128%[activator]
O=C(NCc1ccccc1Cl)c1cc2ccccc2o1,7%,91%[activator]
Cc1ccc(-c2cc(C(=O)NCc3cnn(C)c3)c3cc(Br)ccc3n2)cc1,-3%,1%
CC(C)Cn1c(=O)[nH]c(=O)c2c(C(=O)O)cc(C3CC3)nc21,5%,-5%
Cn1c2c(c(=O)n(C)c1=O)C(c1ccc(O)cc1)C1=C(CC(C)(C)CC1=O)N2 (stereo not given),-16%,-9%
Cc1ccc(OCCN)cc1C,1%,13%
CCc1ccccc1NC(=O)CSc1nnc(-c2cc(-c3ccc(Cl)cc3)n[nH]2)n1N,-3%,8%
COc1ccc(CNc2cccc(C(=O)O)c2C)cc1OC,0%,159%[activator]
CCC/C(=N\NC(=O)C(O)(c1ccc(C)cc1)c1ccc(C)cc1)c1ccccc1,106%[activator],-12%
CCOc1ccc(CN(C)CC(=O)NC(=O)NCc2ccccc2)cc1,15%,15%
CCOc1ccc(-c2cc(C(=O)NC(C)CC)c3ccccc3n2)cc1 (stereo not given),-2%,26%
COc1ccc(CNC(=O)c2cc(Nc3ccccc3C)nc3ccccc23)cc1,30%,-6%
COc1ccc(CNC(=O)Cn2c(=O)nc(-c3ccccc3F)c3cc(Cl)ccc32)cc1OC,5%,15%
CC1(C)C(c2ccccc2)=[N+]([O-])C(c2ccccc2Cl)N1O (stereo not given),5%,-4%
Cn1nnc2c(NCc3c(F)cccc3F)ncnc21,-9%,-19%
CN(CC(=O)NC(=O)NCCC1=CCCCC1)C1CCCCC1,-6%[1.06 µM],0%
Cc1ccc(NC(=O)c2sc3nc(-c4ccc(F)cc4)cn3c2C)c(C)c1,-10%,-15%
CC(Sc1ncc(-c2ccccc2)o1)C(=O)NCc1ccc(F)cc1 (stereo not given),22%,72%[activator]

The listing continues.
canonical_smiles,StopGo RLuc,StopGo FLuc
Cc1ccc(O)c(-n2nc3ccccc3n2)c1,2%,106%[activator]
Cc1cc(C)c2c(c1)c(C)cc1nnc(SCc3ccccc3C#N)n12,-7%,-12%
COc1ccc(OC)c(NC(=O)c2c(NCc3ccc(OC)c(OC)c3)sc3c2CCC3)c1,-15%,-14%
O=C(Nc1cccc(Cl)c1)c1cnc(N2CCOCC2)c2ccccc12,-25%,-21%
CCn1cc(C(=O)NCCc2ccc(OC)c(OC)c2)c(=O)c2cc(S(=O)(=O)N3CCOCC3)ccc21,66%[activator],14%
Cc1ccccc1COc1ccc(C=O)cc1,5%,0%
Cn1cnc(S(=O)(=O)N2CCCC(C(=O)Nc3cccc(C#N)c3)C2)c1 (stereo not given),15%,19%
O=C(CCC1N=C2c3ccccc3N=C(SCc3ccc(F)cc3)N2C1=O)N1CCN(c2ccccc2)CC1 (stereo not given),103%[activator],12%
CCc1cccc(C)c1NC(=O)COC(=O)c1cc(C)nc2ccccc12,-30%,?
CCc1nnc(NC(=O)c2nc(S(=O)(=O)Cc3ccc(C)cc3)ncc2Cl)s1,-27%,1%
CC(C)c1nc2oc3c(N(CCO)Cc4ccccc4)ncnc3c2c2c1CCC2,-11%,-7%
CCOc1ccc(S(=O)(=O)N(CC(=O)Nc2ccc(OC)c(Cl)c2)c2ccccc2)cc1,-6%,-12%
CCOc1ccc(CC(=O)NC2CC(=O)N(c3ccc(C)c(C)c3)C2)cc1 (stereo not given),-7%,-23%
Cc1ccc(S(=O)(=O)N(CC(=O)N2CCc3ccccc3C2)Cc2cccc(C)c2)cc1,6%,?
CC(C)(C)OC(=O)N1Cc2ccccc2C[C@H]1C(=O)Nc1ccc2c(c1)OCO2,25%,51%[activator]
COc1ccccc1-n1c(=O)n(CC(=O)NC(C)c2ccccc2)c(=O)c2c(C)cc(C)nc21 (stereo not given),3%,3%
CCCc1cc(=O)[nH]c(SCc2nc(-c3ccc(OC)c(OC)c3)no2)n1,-26%,-16%
Cc1cc(C)n(-c2nc3c(c(=O)n(CCN4CCOCC4)c(=O)n3C)n2CCC(C)C)n1,0%,21%
CCCN1C(=O)c2cc(C(=O)NCc3ccccc3OC)nn2CC1(C)C(=O)NC1CCCC1 (stereo not given),1%,-2%
CSc1nc(C(C)C)nc(C)c1C(=O)Nc1cc(Cl)ccc1C,6%,-6%
Cc1cc2nc(/C(C#N)=C/c3ccc4c(c3)OCO4)[nH]c2cc1C,78%[activator],209%[activator]
CC1CSc2ccc(S(=O)(=O)NCCc3ccccc3)cc2NC1=O (stereo not given),48%[activator],-12%
CCOc1cc(/C=C(/C#N)C(=O)OCCOC)cc(Cl)c1OC,5%,-6%
CC(C)COCC(CN(Cc1ccccc1)c1ccccc1)N1CCCC1 (stereo not given),-5%,15%[11.5 µM]
CC(C)NC(=O)CCCN1C(=O)CCn2nc(-c3cccn3C)cc21,-14%,-5%
Clc1cccc(Cl)c1C=Nc1cccc2ccccc12,13%,0%
CC(C)(C)SCC(=O)N1CCCC(O)C1 (stereo not given),0%,2%
CCc1ccc(S(=O)(=O)c2nnn3c2nc(NCc2ccc(F)cc2)c2sccc23)cc1,48%[activator],10%
Cc1c(Cl)cccc1-n1c2c(c(=O)[nH]c1=O)CN(CCc1ccccc1)CN2,13%,127%[activator]
CN(c1ccccc1)S(=O)(=O)c1nnc(NC(=O)c2ccco2)s1,50%[activator],9%
Cc1ccccc1C(=O)Nc1ccc(C(=O)OCc2cc(=O)n3nc(C(C)C)sc3n2)cc1,-6%,2%
COC(=O)[C@H](CC(C)C)N(CCCc1cn(Cc2ccc(C)cc2)nn1)S(=O)(=O)c1ccc(F)cc1Br,46%[activator],-11%
COc1ccc(C(=O)O)c(OCc2ccc(C#N)cc2)c1,-3%,-10%
Cn1c(=O)c2c(ncn2CC(=O)OCC(=O)c2ccc(C3CCCCC3)cc2)n(C)c1=O,4%,0%
O=C(Nc1cccc2c1CCCC2)c1cnc(Cl)c(Cl)c1,-2%,-2%
CC(Cc1ccco1)NS(=O)(=O)N1CCOCC1 (stereo not given),-1%,-17%
CONC(=O)C(C)c1ccc2cc(OC)ccc2c1 (stereo not given),4%,0%
O=C(O)c1nn(CC(=O)N2CCCC2)c(=O)c2ccccc12,-8%,2%
Cc1nc2cc(-c3cccc(F)c3)nn2c(C)c1CCC(=O)NC1CCCCC1,7%,?
O=[N+]([O-])c1ccc(N=Cc2cccnc2)cc1,10%,28%
CC(C)(C)c1cc(C(F)(F)F)[nH]n1,24%,35%[activator]
CCOC(=O)c1ccc(Oc2c(C(F)(F)F)oc3cc(OC(=O)c4ccc(F)cc4)ccc3c2=O)cc1,7%,0%
C=CCc1c(C)nc2nc(SCC(=O)Nc3ccc(OCC)cc3)nn2c1C,-1%,-7%
O=C(O)/C=C/c1ccc(Br)o1,7%,6%
COc1ccc(CNCc2ccco2)cc1OC,-6%,-6%
CCOC(=O)c1ccc(NC(=O)C2CCOCC2)cc1,19%,185%[activator]
O=S(=O)(c1ccc2ccccc2c1)N1CCN(c2nc3ccccc3o2)CC1,1%,4%
COc1ccccc1/C=N/O,-5%,-5%

Exported with values under each structure: part of the list above
Values run as follows: StopGo RLuc	StopGo FLuc
C=CCc1c(C)nc2nc(SCC(=O)Nc3ccc(OCC)cc3)nn2c1C
→ -1%	-7%
CC(C)(C)SCC(=O)N1CCCC(O)C1 (stereo not given)
→ 0%	2%
Cc1cc(C)c2c(c1)c(C)cc1nnc(SCc3ccccc3C#N)n12
→ -7%	-12%
Cc1ccc(NC(=O)c2sc3nc(-c4ccc(F)cc4)cn3c2C)c(C)c1
→ -10%	-15%
O=c1c2c(ncn2Cc2ccco2)n(Cc2ccccc2)c(=O)n1CC(O)c1ccccc1 (stereo not given)
→ -5%	-8%

Remaining list, next part
canonical_smiles,StopGo RLuc,StopGo FLuc
Cc1cc(C)cc(NC(=O)CCS(=O)(=O)c2ccc3c(c2)oc(=O)n3C)c1,-5%,-10%
COc1ccc(C)cc1S(=O)(=O)Nc1cccc(-c2ccc(N3CCCC3)nn2)c1,27%,-5%
CCN(CC)S(=O)(=O)c1ccc(N/N=C/c2cccs2)c([N+](=O)[O-])c1,16%,59%[activator]
S=C(NCc1cccc(Cl)c1)NCc1cccs1,243%[activator],87%[activator]
O=C(CCc1ccsc1)N(CC1CCOC1)C1CC1 (stereo not given),-3%,3%
CCn1c(CC(=O)Nc2ccccc2C)nnc1SCC(=O)Nc1ccc2ccccc2c1,-11%,0%
COc1nc2ccccc2nc1N1CCC(C(=O)Nc2ccc(C(N)=O)cc2)CC1,0%,2%
CSc1nnc([C@H](CC(C)C)NC(=O)OC(C)(C)C)o1,-8%,-12%
Cc1cc(C)cc(N(CCC#N)C(=O)COC(=O)c2csc(NCc3ccccc3)n2)c1,35%[activator],11%
CCN(Cc1ccccc1)S(=O)(=O)c1ccc(F)c(C(=O)Nc2cc(C(F)(F)F)ccc2Cl)c1,2%,-7%
COc1ccc(C(C)=O)c(OCc2cc(OC)c(Br)cc2OC)c1,13%,53%[activator]
Cc1ccc(C)c(C(C)NC(=S)NCc2ccc(Cl)cc2)c1 (stereo not given),32%[activator],-19%
